Beta2AR agonist: beta2AR agonists driving receptor internalization, primary screen, cell-based, FAP fluorogen, flow cytometry | Beta-2 adrenergic receptor (Homo sapiens), P07550 | Am2.2-beta2AR cells; reference of the scale not given here | response, % (test concentration not listed) | hit rate 0.43% among 340,000 | AID 504454, 2011;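 active means response above a set limit, near 3 SD of response in nonfluorescent compounds, cut at about 42% in these data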;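 further: stock transfer was 100 nL into about 11 µL; a reference agonist was the positive control; negative values mostly stem from fluorescent compounds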
Target sequence (P07550 whole entry, looked up): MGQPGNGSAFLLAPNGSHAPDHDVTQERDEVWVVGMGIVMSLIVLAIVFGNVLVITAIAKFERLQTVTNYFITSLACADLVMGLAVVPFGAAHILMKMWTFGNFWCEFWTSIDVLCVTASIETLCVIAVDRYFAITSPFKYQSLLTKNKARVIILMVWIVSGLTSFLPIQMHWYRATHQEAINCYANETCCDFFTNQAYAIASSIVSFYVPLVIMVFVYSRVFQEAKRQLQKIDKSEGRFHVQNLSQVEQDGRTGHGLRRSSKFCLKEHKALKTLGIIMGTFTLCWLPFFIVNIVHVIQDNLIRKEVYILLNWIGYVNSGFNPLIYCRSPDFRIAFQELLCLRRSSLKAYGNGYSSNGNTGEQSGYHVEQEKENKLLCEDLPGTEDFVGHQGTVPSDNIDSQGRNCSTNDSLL
T cruzi repl: inhibitors of intracellular T. cruzi growth, primary screen, luminescence, NIH3T3 host cells. hit rate 1.4% among 300,000. inhibition, % (test concentration not listed). T. cruzi beta-gal in NIH3T3, 90 h;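 active means mean inhibition across valid replicates above about 55%, limit read from the data; inconclusive means mean below that limit but half or more replicates reach it; inactive means mean below it, under half of replicates reach it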;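 further: signal also drops with host cell toxicity which is not excluded here; 0% = plate median of DMSO wells and 100% = zero luminescence signal; higher percent means less beta-gal luminescence so fewer parasites; stock transfer was 50 nL into about 50 µL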
Calb FLC: C. albicans growth inhibition with fluconazole, primary screen, CaCi-2 strain, Alamar Blue fluorescence; C. albicans CaCi-2 (fluconazole-resistant clinical isolate) + fluconazole, 48 h; growth inhibition, % (test concentration not listed); hit rate 0.57% among 300,000;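 active means most replicates above 75%; inconclusive means exactly half above 75%; inactive means most below 75%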;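 further: all wells also contain fluconazole at 8 µg/ml as a sub-toxic cotreatment; 0% = median of DMSO wells and 100% = median of geldanamycin control wells; wells of about 8 µL received 7.5 nL stock; the first replicate is given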
ALR H2O2 inh: inhibitors of human ALR sulfhydryl oxidase, primary screen, biochemical, H2O2 detection, HRP-luminol luminescence, single point; FAD-linked sulfhydryl oxidase ALR (Homo sapiens), P55789; purified ALR, DTT oxidation; inhibition, % (test concentration not listed); hit rate 3.8% among 290,000; AID 485317, 2010;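 active means mean and each replicate at 75% or more; inconclusive means only one of the two met; inactive means neither met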;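 further: stock transfer was 7.5 nL into about 7.5 µL; 0% = neutral wells and 100% = wells with inactivated enzyme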
Target sequence (P55789 whole entry, looked up): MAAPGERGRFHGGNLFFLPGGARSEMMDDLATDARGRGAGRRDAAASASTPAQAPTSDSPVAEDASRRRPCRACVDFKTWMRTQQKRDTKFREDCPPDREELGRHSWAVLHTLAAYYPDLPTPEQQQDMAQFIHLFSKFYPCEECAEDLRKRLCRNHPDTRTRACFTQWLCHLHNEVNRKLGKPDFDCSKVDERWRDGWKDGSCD
Ecoli rRNA inh: reduced GFP signal of wild-type E. coli, primary screen, bacterial rRNA inhibitor project, GFP/RFP fluorescence, OD600, single point. E. coli WT GFP vs humanized-ribosome RFP mutants, 24 h; hits give low values; DMSO median 0, no signal -100. GFP signal change (wild-type ribosome), % (test concentration not listed). hit rate 1.6% among 350,000. AID 720706, 2013;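 active means significant combined selectivity score with lowered wild-type GFP, culture density cut under 30%, mutant RFP and density less affected; inactive means any of these conditions unmet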; further: one replicate is shown; some compounds called inactive have numbers as strong as hits
LANA-H2A inh: blockers of LANA interaction with H2A/H2B – biochemical, FP readout, HTS, primary screen; Protein LANA1 (Human herpesvirus 8 type P (isolate GK18)), Q9QR71; cell-free LANA-H2A/H2B peptide, fluorescence polarization; hit rate 0.6% among 320,000; AID 2629, 2010; inhibition, % (concentration not given with the values); in the data active means inhibition mostly above about 10%, no sharp cut-off; inactive means mostly below about 6.7%;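 further: stock transfer was 7.5 nL into about 10 µL; 0% = median of vehicle wells and 100% = median of positive control wells; one replicate is shown; the record names a cut of 25% in any replicate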
A1 inh: caspase 3/7 activation in MEF A1-2A-BIM cells, primary screen, A1 inhibitor project, cell-based, luminescence, HTS. hit rate 0.066% among 330,000. caspase activation, % (no concentration beside the values). Caspase-Glo 3/7 luminescence, 3 h; percent of clofoctol response, vehicle zero;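 active means over half of replicate activation scores above 10%, or exactly half above 10 with the replicate mean above 10; inconclusive means replicate mean below 10 yet half the replicates above 10; inactive means over half of replicates below 10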;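 further: wells of about 30 µL received 50 nL stock; many hits fall short of the cut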
Beta apoptosis: inhibitors of cytokine-induced beta cell apoptosis, primary screen, luminescence; hit rate 0.8% among 300,000; AID 435005, 2010; INS-1E cytokine-induced death, ATP luminescence, 48 h; percent of positive-control rescue, neutral wells zero; protection from apoptosis, % (test concentration not listed);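 active means all replicates at 75% or more, or half of them and the mean; inconclusive means half reach 75% but not the mean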;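 further: 0% = cytokine-treated negative control wells and 100% = positive control rescue; higher means more ATP so stronger rescue from cytokine killing; wells of about 40 µL received 100 nL stock; the first replicate is given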
Ecoli rRNA inh OD600: recorded beside Ecoli rRNA inh, whose call it bears; OD600 change, %; measured here: OD600 growth;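 optical density of the mix in the first replicate; 0 = DMSO median and -100 = no signal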
Ecoli rRNA inh RFP: also measured in Ecoli rRNA inh; calls as there; RFP signal change, %; measured here: RFP humanized mutant strains;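 first replicate; 0 = DMSO median and -100 = no signal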
An asterisk follows results filed as active; ? = inconclusive; . = no result given.

SMILES	Beta2AR agonist	T cruzi repl	Calb FLC	ALR H2O2 inh	Ecoli rRNA inh	Ecoli rRNA inh OD600	Ecoli rRNA inh RFP	LANA-H2A inh	A1 inh	Beta apoptosis
CCCc1nc2ccccc2c(C(=O)OCc2nnc(-c3cc(OC)c(OC)c(OC)c3)o2)c1CC	1	.	.	-5	.	.	.	-1.1	0.5	.
CCNC(=O)NC(=O)CSc1ccc(S(=O)(=O)N2CCOCC2)cn1	-3	.	.	-7	3	6	-1.5	6.7	-0.1	-3
O=C(O)C(Cc1ccccc1)n1cnnn1 (centres undefined)	3	-6	-7	7	18	13	-7.7	2.3	-0.2	4
CSc1ccccc1OCc1cc(C(=O)NCCn2nc(C)cc2C)no1	4	-2	7	1	-10	-20	0.8	0.7	1.2	.
CCOc1ccc(OCC)c(NC(=O)Cn2c(C)nc3ccccc3c2=O)c1	-5	12	1	-4	5	6	-0.5	-4.0	-0.6	5
O=C(CCS(=O)(=O)c1ccccc1)Nc1nccs1	-10	-17	-8	-3	17	15	-1.0	-4.9	-0.1	-4
NCCCC[C@@H]1NC(=O)c2cc([N+](=O)[O-])cc(F)c2NCCCC[C@@H](C(N)=O)NC(=O)CNC1=O	-4	-5	6	-8	-2	-2	33	-5.6	1.1	0
COc1ccc(CN2C(=O)c3cccnc3C2=O)cc1S(=O)(=O)NC(C)C	-2	-6	-3	-2	13	28	1.4	2.2	0.5	-7
CC(=O)Nc1ccc(NC(=O)CN2CCCC(C)C2)c(Cl)c1 (centres undefined)	-6	-12	6	-2	.	.	.	1.0	0.7	-5
Cc1ccc(S(=O)(=O)Nc2ccc(NC(=O)Nc3cccc(C(F)(F)F)c3)cc2)cc1	14	-3	-20	-3	-39	-40	-15	2.6	1.1	96*
C[C@@]12C(=O)N(c3cccc(F)c3)C(=O)N1[C@@H]1c3ccccc3OC[C@@H]1[C@H]2c1ccccc1	5	.	.	0	-3	-6	-6.0	3.1	-0.7	2
COc1cc(F)cc(C2=CC(=O)C[C@H](c3ccc(F)cc3)C2)c1	-5	.	.	-2	-8	-18	-3.6	3.8	-0.8	-6
Cc1ccc(C23CC4CC(CC(C(=O)NC(C(=O)O)C(C)C)(C4)C2)C3)cc1 (centres undefined)	-7	5	7	.	0	3	-3.1	-7.5	-0.5	-9
O=C(O)CSc1nc2c(cnn2-c2ccccc2)c(=O)n1-c1ccc(Br)cc1	-1	-6	1	.	.	.	.	5.6	0.1	-3
CCn1c(=O)c(CCC(=O)N2CCN(c3ccccn3)CC2)c(C)c2c(C)nn(-c3ccccc3)c21	22	35	5	-5	9	16	4.0	1.6	-0.7	0
CC1=CC2=NC(=O)/C(=C/c3coc4ccc(Cl)cc4c3=O)C(=N)N2O1	-68	-2	2	97*	-27	-36	-1.5	-16	0.3	-9
COc1ccc(OC)c(C(=O)NC2CC(C)(C)Cc3c2cnn3-c2ccccc2)c1 (centres undefined)	4	6	21	13	-12	-32	-0.7	.	.	.
COc1ccc(N(C(=O)c2cccnc2)S(=O)(=O)c2cccc([N+](=O)[O-])c2)cc1	7	6	32	4	11	8	-2.2	-1.5	1.1	-1
Cc1ccc(NC(=O)c2ccc(NCCN)c([N+](=O)[O-])c2)cc1Cl	10	-29	13	3	-52	-73	-33	-0.6	0.5	2
C/C(=N\NC(=O)CCCNc1cccc(C)c1)c1ccncc1	-1	-26	0	93*	23	14	2.0	5.6	0.1	-1
COc1ccc(NS(=O)(=O)c2ccc(N/N=C(\C)c3ccncc3)c([N+](=O)[O-])c2)cc1	5	53	1	.	-23*	11*	-2.2*	-1.1	0.7	50
Cc1ccc(CNC(=O)c2ccc(C)s2)cc1	-6	-20	0	-14	6	-1	-0.2	-3.7	0.3	-4
COc1nccnc1NS(=O)(=O)c1ccc(N)cc1	-5	-1	18	.	18	13	0.0	.	.	.
c1ccc(Cn2nnc3cnccc32)cc1	11	22	-11	-25	22	10	4.1	-11	0.1	-7
C/C(=N/NS(=O)(=O)c1ccccc1)c1ccc(NC(=O)C2CC2)cc1	-2	-7	-20	3	7	7	-0.5	-1.2	-1.3	4
Later entries:
SMILES	Beta2AR agonist	T cruzi repl	Calb FLC	ALR H2O2 inh	Ecoli rRNA inh	Ecoli rRNA inh OD600	Ecoli rRNA inh RFP	LANA-H2A inh	A1 inh	Beta apoptosis
O=C(CS(=O)(=O)c1ccc(Cl)cc1)NCc1ccccc1	-6	8	9	0	-4	5	-1.7	2.0	0.4	-1
COc1ccc(C(=O)c2c(N)sc3c2CCN(C)C3)cc1	4	8	15	.	16	24	3.7	2.7	0.2	.
O=C(Nc1cccc(C(F)(F)F)c1)c1sc(Cl)nc1C(F)(F)F	12	-20	-10	5	-58	-83	-28	-2.9	0.2	17
CCN(C(=O)COC(=O)C(Cc1ccccc1)N1C(=O)c2ccccc2C1=O)C1CCS(=O)(=O)C1 (centres undefined)	13	-12	-15	-16	.	.	.	3.5	0.2	-6
O=C1CC(C2CCCO2)C(=O)N1c1cccc(Cl)c1 (centres undefined)	-2	-4	?	-7	.	.	.	-0.1	-0.6	-4
N#C/C(=C\c1ccc(-c2ccc(C(=O)O)cc2)o1)C(=O)NCC1CCCO1 (centres undefined)	7	-1	1	-2	.	.	.	4.5	0.7	-1
Cn1c(N2CCC(C(N)=O)CC2)nc2c1c(=O)n(Cc1ccc(Br)cc1)c(=O)n2C	11	-2	1	.	.	.	.	3.9	1.3	-4
CC(C)CC(=O)/C(=C/c1ccc(N(C)C)cc1)n1cncn1	-5	-12	8	50	2	3	-0.3	-3.0	0.6	-1
CN1C(=S)N(c2cccnc2)C(=O)/C1=C\c1ccc(N(C)C)cc1	-61	-6	-20	.	12	12	6.6	.	.	.
CN(C(=O)Cc1noc2ccccc12)c1ccccc1	-2	-7	1	-4	.	.	.	-6.8	-0.1	.
Cc1cccc(CN2CCN(C3CCCC3)C(CCO)C2)n1 (centres undefined)	-6	-3	-8	-6	-1	0	-0.6	-6.5	0.9	-3
C=CCN(CC=C)C(=O)c1cccc(OC2CCN(CC(C)(C)C)CC2)c1	-2	5	-6	.	15	15	5.8	-2.2	0.5	.
Cc1cc(C)cc(N(CC(=O)NCCSCc2ccccc2)S(C)(=O)=O)c1	-4	-5	?	-13	-30	-32	-4.1	-15	-0.3	3
O=C1c2ccccc2C(=O)c2c(NCCCN(CCO)CCO)cccc21	13	?	-10	.	-36	-51	35	.	.	.
Cc1ccn2c(CNCC3COCCO3)c(C(=O)N3CCCCCC3)nc2c1 (centres undefined)	-5	10	-4	-7	8	2	-2.2	-2.4	1.0	-8
Cc1nn(C)c2ncc(C(=O)c3ccccc3O)cc12	8	-13	-1	2	-1	4	1.2	-4.1	0.9	-4
Cc1ccccc1/C=C/C1=NCCN1	-4	.	.	5	6	4	-2.1	-4.6	1.7	-4
c1ccc2c(c1)OCc1cn[nH]c1-2	-3	-1	0	.	6	-2	-8.1	5.3	0.1	-1
CC(=O)N/N=C(/C)c1ccc(NC(=O)c2csc(C)c2C)cc1	3	-21	7	-2	-6	1	5.6	-1.7	-0.8	0
COc1ccc(C(=O)CC(=O)c2ccccc2)cc1	1	-1	2	-2	17	9	-0.6	-0.3	-4.9	3
COc1cccc(NC(=O)C2C3C=CC(O3)C2C(=O)NCc2cccnc2)c1 (centres undefined)	7	-8	-1	98*	.	.	.	-1.0	0.1	-3
O=C(Nc1ccc(F)c(Cl)c1)C1CC(=O)n2c(nc3ccccc32)N1 (centres undefined)	-8	-9	-13	1	12	8	3.4	-1.5	-0.4	-4
COC(=O)C1[C@H]2C(=O)N(Cc3cccs3)C[C@]23C=C[C@H]1O3 (some centres undefined)	9	-8	-3	-10	.	.	.	-5.9	-0.3	-7
Cn1c(SCC(=O)Nc2ccc(Br)cc2F)nnc1-c1ccco1	-11	2	38	-11	16	16	3.8	-4.9	-0.3	0
COc1ccc(C2(CNC(=O)c3cccc([N+](=O)[O-])c3)CCOCC2)cc1	0	15	5	-4	.	.	.	2.2	-0.2	-7
Next section.
SMILES	Beta2AR agonist	T cruzi repl	Calb FLC	ALR H2O2 inh	Ecoli rRNA inh	Ecoli rRNA inh OD600	Ecoli rRNA inh RFP	LANA-H2A inh	A1 inh	Beta apoptosis
Nc1ccc(C(=O)N(CCO)CCO)cc1	-3	-2	-2	-5	18	13	-0.2	0.8	-0.3	-6
C[C@@H]1C=C(C(=O)N2CCN(C)CC2)O[C@H](OCc2ccc(CO)cc2)C1	1	-15	-15	5	12	21	6.2	0.0	1.3	-6
CC(=O)c1ccc(NC(=O)CSc2ccc(-c3sc(C)nc3C)nn2)cc1	16	2	16	99*	2	-24	8.7	-1.4	0.2	-4
Fc1ccccc1CSc1nncn1NCc1cccs1	2	-4	-2	3	-12	-10	1.3	-2.0	0.7	.
Cc1cc(/C=N/NC(=O)CC2(C)OCCO2)c(C)n1-c1cc(Cl)cc(Cl)c1	0	-11	9	6	.	.	.	-2.4	0.2	-12
COc1ccc(-c2nnc(NC(=O)CSc3ccccc3)s2)cc1OC	5	-9	-7	-6	4	8	0.2	-0.7	-0.5	-6
CSc1nc2ccccc2cc1/C=C(\C#N)c1ccc(Cl)c(Cl)c1	-10	-6	4	3	.	.	.	-0.5	0.3	8
Cc1n[nH]c(=O)c2c(NC(=O)COC(=O)Cc3c(F)cccc3Cl)oc(C)c12	-10	-3	.	-17	8	14	-0.7	0.5	0.8	-5
CCc1ccccc1OCC(=O)OCC(=O)Nc1cc(C)on1	0	.	.	0	2	8	-0.3	-3.6	-0.7	-4
CCc1cc(=O)n2c([nH]c3ccccc32)c1C#N	13	-11	-1	.	.	.	.	6.2	-3.7	14
COc1cc([N+](=O)[O-])ccc1NC(=S)Nc1cc(C(=O)OC(C)C)cc(C(=O)OC(C)C)c1	4	-12	-3	.	.	.	.	4.7	-1.5	-8
CCn1c2ccccc2c2cc(/C=N/O)ccc21	27	-12	44	34	-56	-81	-14	9.0	0.5	-4
CC(=O)c1cccc(NC(=S)NCCc2ccc(F)cc2)c1	-2	-1	-21	.	-26	-39	2.1	-3.4	-0.5	1
COC(=O)c1ccc(CON2C(=O)c3ccccc3C2=O)cc1	32	-11	7	-22	.	.	.	1.9	-0.4	-3
CC(=O)c1cccc(NC(=O)c2sc(Cl)nc2C)c1	11	-10	0	.	-4	-1	-5.2	-0.3	0.5	5
Oc1ccc(-c2sc(Nc3ccccc3)n[n+]2-c2ccc(F)cc2)cc1	-3	-22	-10	24	4	6	-4.8	5.4	0.1	-4
CCOC(=O)C1CCN(Cc2cn[nH]c2-c2ccc(C)cc2)CC1	5	8	-9	-11	.	.	.	-3.8	-0.7	-2
Cc1ccc(CNC(=O)CCCn2c(=O)c3ccccc3n(CC(=O)NCc3ccco3)c2=O)cc1	-8	2	-13	0	.	.	.	-2.6	-0.4	.
Cc1nnsc1C(=O)N1CCN(c2ccc(F)cc2)CC1	2	.	-9	3	4	10	-3.2	-0.2	0.4	5

Screening data: PubChem, several laboratories

The list is partial (hit frequency here may not be typical).
